Bioassay records (PubChem BioAssay)
D2 ag: human D2 receptor agonism in beta-arrestin assay; DiscoveRx PathHunter D2 beta-arrestin, luminescence, 90 min; 100% = 57 uM dopamine signal; activation, % (test concentration not listed); 360,000 compounds, 0.084% hits; in the data active = activation above about 40%; inconclusive = about 15% to 40%; inactive = below about 15%; further: compound concentration not given in the record; the text of the record calls up to 30% inactive
Target sequence (P14416 whole entry, looked up): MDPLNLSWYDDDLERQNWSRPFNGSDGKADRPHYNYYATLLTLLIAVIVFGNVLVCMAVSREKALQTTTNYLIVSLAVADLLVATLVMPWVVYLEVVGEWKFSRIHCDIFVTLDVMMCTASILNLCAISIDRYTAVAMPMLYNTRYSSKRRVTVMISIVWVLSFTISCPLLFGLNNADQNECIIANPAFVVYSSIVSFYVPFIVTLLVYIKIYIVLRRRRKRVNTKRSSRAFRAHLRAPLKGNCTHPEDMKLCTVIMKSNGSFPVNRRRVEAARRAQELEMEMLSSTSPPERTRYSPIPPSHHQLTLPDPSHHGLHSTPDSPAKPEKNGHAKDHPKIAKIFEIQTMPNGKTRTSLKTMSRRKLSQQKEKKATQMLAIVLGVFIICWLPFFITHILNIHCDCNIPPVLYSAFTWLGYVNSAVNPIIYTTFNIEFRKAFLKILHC
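DiscoveRx PathHunter D2 beta-arrestin cells (2,100/well) attached overnight, then compound-stimulated 90 min at 37 C in HBSS/10 mM HEPES/0.1% Tween-20 buffer; beta-galactosidase complementation read by luminescence after 1 h at ambient temperature. Dopamine 57 uM final (EC100) as control.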
CtBP-E1A blk: blocks the CtBP interaction with E1A | AlphaScreen GST-E1A/His-CtBP binding, 1536-well; active compounds read low; control for the full effect not named in the record | activity change, % (no concentration beside the values) | 340,000 compounds, 0.49% hits | AID 651724; in the data active means activity change below about -65%; inconclusive means about -30% to -65%; inactive means above about -30%; further: on the % scale 0 is the no-effect control and ±100 the full control effect
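Protein mix (5X: 125 nM each GST-E1A, His-CtBP) was incubated with pinned compound 2 h at 37 deg C in dark, in 50 mM Tris pH 8.0 buffer with 300 mM NaCl. Glutathione donor and nickel acceptor beads followed; AlphaScreen signal read after 1 h.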
D2 potentiator: positive allosteric modulators of human D2 dopamine receptor; P14416; DiscoveRx D2 beta-arrestin cells, luminescence, 90 min; 100% = 57 uM dopamine signal; potentiation, % (test concentration not listed); 360,000 compounds, 0.23% hits; AID 624464; active = potentiation of 50% or more; inconclusive = 30% to 50%; inactive = 30% or less;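 further: compound concentration not given in the record; tested on top of an EC20 dose of dopamine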
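D2 cells co-treated with compound plus 50 nM dopamine (EC20) for 90 min at 37 deg C to detect potentiation. Beta-arrestin recruitment was read as enzyme-fragment luminescence after 1 h at ambient temperature. Full response was set by 57 uM dopamine.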
PINK1 expr mod: changes PINK1 expression. 410,000 compounds, 0.2% hits. Potency, µM (titrated, usually from 76.6 µM), without a hit: at the highest dose activation (PINK1 increase), usual class: activators. AID 624263. PINK1 immunofluorescence, high-content cytometry, 24 h; active = well fitted activation curve with a large enough effect; inconclusive = small, poorly fitted or top-dose-only effect; inactive = flat fitted curve, though single readings scatter; cell line not stated here;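 further: potency means the concentration at half of the fitted maximal effect; % of control where 0% means no effect; nearly all actives have a fitted effect of over 65% in size; a mitochondrial uncoupler was the plate control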
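Cells are seeded, rested 12 hours, then given compound at five concentrations or DMSO for 24 hours. After fixation, blocking and antibody staining, PINK1 amount and mitochondrial localization are scored; CCCP serves as control.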
TRPML1 agonist: human mucolipin-1 channel agonism; TRPML1-expressing cells, Ca2+ dye fluorescence, FDSS; host cell line not named in the record; reference of the full effect not given here; AID 624414; activation, % (concentration not given with the values); 410,000 compounds, 0.12% hits; in the data active = activation above about 50%; inconclusive = about 30% to 50%; inactive = below about 30%; further: 0% is about no effect; the text of the record puts the active cut at 80%
Target sequence (Q9GZU1 whole entry, looked up): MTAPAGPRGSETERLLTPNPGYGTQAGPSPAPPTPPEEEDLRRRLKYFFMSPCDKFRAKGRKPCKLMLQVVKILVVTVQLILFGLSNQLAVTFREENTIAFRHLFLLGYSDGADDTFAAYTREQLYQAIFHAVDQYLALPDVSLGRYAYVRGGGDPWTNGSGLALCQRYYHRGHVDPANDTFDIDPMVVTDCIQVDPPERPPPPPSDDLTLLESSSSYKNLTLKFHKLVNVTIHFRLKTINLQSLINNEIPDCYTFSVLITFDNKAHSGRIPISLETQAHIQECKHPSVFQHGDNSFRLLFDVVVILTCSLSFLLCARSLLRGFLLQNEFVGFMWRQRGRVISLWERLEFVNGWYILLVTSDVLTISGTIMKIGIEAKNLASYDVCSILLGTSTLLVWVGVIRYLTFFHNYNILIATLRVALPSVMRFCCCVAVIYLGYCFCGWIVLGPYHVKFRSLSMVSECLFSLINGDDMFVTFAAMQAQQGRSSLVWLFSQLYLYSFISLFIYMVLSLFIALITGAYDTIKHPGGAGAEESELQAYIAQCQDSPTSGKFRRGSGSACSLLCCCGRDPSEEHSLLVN
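Calcium fluorescence on an FDSS kinetic reader gave the read-out. Tet-induced TRPML1-DL cells were plated overnight, dye-loaded (Ca8 with quencher, 45-90 min, room temperature, dark), then read 110 s after compound addition, and again 110 s after 4uM final 54-4 (EC80).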
Six1-Eya2 inh: blocks human Six1 binding to Eya2. 360,000 compounds, 0.56% hits. activity change, % (test concentration not listed). Q15475+O00167. AlphaScreen GST-Six1/His-Eya2 binding, biochemical; active compounds read low; control for the full effect not named in the record; in the data active = activity change below about -65%; inconclusive = about -30% to -65%; inactive = above about -30%; further: on the % scale 0 is the no-effect control and ±100 the full control effect
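GST-Six1 + His-Eya2 (5X stock: 250/500 nM); Tris pH 8.0, 300 mM NaCl, 0.05% BSA, 0.02% Tween 20; GSH donor/Ni acceptor beads; 1 h 37 °C dark; AlphaScreen readout.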
* marks the source's active call; other numbers are inactive results; ? = inconclusive; . = no result given; [ ] = dose if it differs, or a comment.

Order of values: D2 ag, CtBP-E1A blk, D2 potentiator, PINK1 expr mod, TRPML1 agonist, Six1-Eya2 inh
COc1ccc(CNCc2ccc3c(c2)OCO3)cc1Br
    -6.3, ., -16, 0.8%, 1.1, -2
CCc1cccc(OCC(=O)Nc2ccc(S(=O)(=O)Nc3ccccn3)cc2)c1
    5.7, ., ?, 0.4%, 1.6, -10
CC1(c2ccccc2)NC(=O)N(CC(=O)Nc2ccccc2N2CCCC2)C1=O (stereo unspecified)
    -7.4, 8, -22, 0.2%, 2.6, -9
CC(Sc1nc(N)cc(=O)[nH]1)C(=O)NC1CCCCC1 (stereo unspecified)
    -5.0, 0, -4, 0.3%, -0.5, 0
Cc1ccccc1Oc1nc(-c2ccccn2)nc2ccccc12
    -4.0, -23, -5, -1.6%, 0.2, ?
CC(=O)C1=C(O)C(=O)N(c2ccc(O)cc2)C1c1cccc([N+](=O)[O-])c1 (stereo unspecified)
    -1.2, ., -23, -0.7%, ., 5
COc1ccc(-c2nc(NC(=O)C3CC(=O)N(Cc4ccco4)C3)sc2C)cc1 (stereo unspecified)
    -4.0, -28, -1, 1.3%, -0.1, -16
CCOC(=O)N1CCN(C(=O)C2CCN(C(=O)Nc3ccccc3)CC2)CC1
    -0.1, 8, -20, 0.1%, -0.2, 2
CCCCN(C(=S)NC(=O)c1cc(OC)c(OC)c(OC)c1)c1c(N)n(Cc2ccccc2)c(=O)[nH]c1=O
    0.1, 1, -2, -0.3%, -0.4, 3
CC(=O)N(Cc1ccccc1)Cc1cn(CCC#N)nc1-c1cccc([N+](=O)[O-])c1
    -3.2, 0, -8, 0.9%, 0.1, 4
Cc1ccc(-c2c(C(=O)N/N=C/c3c[nH]c4ccccc34)nnn2-c2nonc2N)cc1
    1.2, ., -5, -2.4%, 1.7, -16
CCOc1ccc(/C=C(/NC(=O)c2ccccc2)C(=O)NCCC(=O)O)cc1
    -1.1, 2, -3, 0.3%, 1.0, 2
COc1ccc(S(=O)(=O)N(CC(=O)NC2CC2)c2ccc(C)cc2)cc1
    -1.3, 15, 5, 1.1%, -0.5, -5
CCCS(=O)(=O)N1CCN=C1SCc1ccc(C)cc1
    2.7, ., -4, -1.1%, 0.4, -1
CCOc1ccc(N(C(C)C(=O)Nc2ccc(OC)cc2)S(C)(=O)=O)cc1 (stereo unspecified)
    -1.6, 7, -5, ., 0.3, -1
CCOc1ccc(CNC(=O)CN2C(=O)CSc3ccc(S(=O)(=O)N4CCOCC4)cc32)cc1
    0.7, -8, -7, -1.5%, -0.9, 2
COc1cccc(CNC(=O)COC(=O)/C=C/c2ccc(SC)cc2)c1
    -1.7, -8, 0, 4.1%, 2.8, -8
COc1ccc(F)cc1S(=O)(=O)N1CCc2ccccc2C1
    5.7, 20, -5, 0.6%, 1.1, 16
O=C(CNC(=O)c1ccccc1Cl)OCC(=O)N1CCc2ccccc21
    -8.0, 0, -25, 0.1%, -1.2, 6
CSc1ccc(/C=N/NC(=O)c2ccc(C)c(C)c2)cc1
    -4.6, -4, -23, 11%, 1.6, -2
CCCn1cnc2c(Sc3c([N+](=O)[O-])ncn3C)nc(N)nc21
    0.9, -1, -3, -0.5%, 0.7, -5
Clc1ccc(CSc2snnc2-c2ccccc2)cc1
    0.2, 75, -13, 1.6%, 6.4, 90
C=COCCNC(=O)Nc1ccc(Cl)c(Cl)c1
    -0.1, -6, -1, ., -0.3, -1
CCOC(=O)CSc1nc(C(C)(C)C)nc2ccccc12
    0.0, -10, -12, 18%, 0.6, 19
O=C(NCCc1ccccc1)NC(Cc1ccccc1)C(=O)O (stereo unspecified)
    -1.1, 6, -4, -1.9%, 0.2, 14
CCN(CC(=O)Nc1cccc(C(C)=O)c1)S(=O)(=O)c1ccc(OC)cc1
    -1.4, -2, -7, -0.8%, 0.5, 5
O=C(NC1CC1)c1cc2c(F)cccc2s1
    -2.3, -11, -10, 1.3%, 3.6, 11
Cc1onc(-c2ccccc2)c1C(=O)Nc1ccnn1C1CCCCC1
    -1.5, -4, 6, -0.4%, 0.4, 6
Nc1nc2n(n1)C(c1cccs1)CC(c1ccc(Br)cc1)N2 (stereo unspecified)
    -5.2, -10, -11, -2.1%[38.3 µM], 1.3, -8
O=C(NCc1nnc(SCC(=O)N2CCOCC2)o1)c1c(F)cccc1Cl
    -0.9, 4, -1, -0.8%, 1.3, 10

A few values from above.
Reading for CCc1cccc(OCC(=O)Nc2ccc(S(=O)(=O)Nc3ccccn3)cc2)c1 under PINK1 expr mod: 0.4%
Reading for O=C(CNC(=O)c1ccccc1Cl)OCC(=O)N1CCc2ccccc21 under PINK1 expr mod: 0.1%

(next part)
Order of values: D2 ag, CtBP-E1A blk, D2 potentiator, PINK1 expr mod, TRPML1 agonist, Six1-Eya2 inh
C[C@H](NC(=O)Cc1cccc2ccccc12)C(=O)NCc1ccccc1
    -16, -2, -24, 0.5%, -0.7, 34
C[C@@H]1CN([C@H](C)CO)C(=O)CCCn2nncc2CO[C@@H]1CN(C)S(=O)(=O)c1cccs1
    -10, -3, -2, 0.5%, -0.1, 5
CC(C)CC(=O)Nc1ccc(-c2nc3ccccc3c(=O)[nH]2)cc1
    -3.6, 0, -15, 6.4%, 0.7, -4
N#Cc1c(-c2cccc(Br)c2)cc(-c2ccco2)[nH]c1=O
    3.5, 5, 7, -0.6%, 2.5, -5
O=C(NCC(F)(F)F)c1ccc(S(=O)(=O)N2CCN(C(=O)C3CCCO3)CC2)cc1 (stereo unspecified)
    -2.5, ., -1, -0.2%, -0.6, 0
C#CCOCCOCCOCCNc1nc(N2CCN(C(=O)[C@H]([C@@H](C)O)n3cc(CCCCN)nn3)CC2)nc(N2CCN(C(=O)[C@H]([C@@H](C)CC)n3cc(CCCCN)nn3)CC2)n1
    -1.3, ., -4, 0.8%, 0.0, 1
CN(CC(=O)NCc1ccco1)S(=O)(=O)c1cccc2cccnc12
    -5.4, 1, 0, 3.8%, -0.4, 0
CN(C)C(=O)c1cc2c(c(-c3cccc(-c4ccccc4F)c3)n1)[C@@H](CCO)N(S(C)(=O)=O)C2
    ., 1, ., 0.9%, 0.0, -3
CCC(C)[C@H](N)c1cn([C@@H](Cc2cc3ccccc3[nH]2)C(=O)N2CCNCC2)nn1 (stereo partly specified)
    -2.4, -12, -7, 0.0%, -0.7, -10
COc1cccc2cc(C(=O)Nc3cccc(C)n3)c(=O)oc12
    -2.1, -2, 2, -1.4%, 1.1, 10
Nc1ccc2c(c1)Cc1cc(N)c(Cl)cc1-2
    0.3, -24, -9, 1.1%, 2.9, -18
O=CN1CCN(C(=O)c2cc3cc(Cl)ccc3[nH]2)CC1
    -1.7, 1, 3, -1.9%, 0.4, 2
O=C(NCc1ccccc1CN1CCCC1)c1ccc(S(=O)(=O)Nc2ccccc2F)cc1
    2.0, -2, -34, -0.8%, 0.6, 8
O=C(COC(=O)CCC(=O)c1cccs1)NCc1ccc(Cl)cc1
    0.0, 3, 7, -0.2%, 0.7, -3
CC(C)C(NC(=O)c1ccc(F)cc1)C(=O)NC1(C)CCS(=O)(=O)C1 (stereo unspecified)
    -2.1, ., 13, 3.2%, -1.1, 10
CCn1ccc(C(=O)NC2C(=O)N3C(C(=O)O)=C(C)CSC23)n1 (stereo unspecified)
    -5.6, -2, -2, -3.2%, 5.3, 1
CC1(C(=O)NCc2ccc3c(c2)OCO3)CCN1C(=O)Cc1cccs1 (stereo unspecified)
    4.3, 6, 0, 1.1%, -0.9, 1
O=C(OCc1csc(-c2ccccc2)n1)c1ccc(O)cc1
    -6.8, 0, -3, 8.8%, -0.3, 12
O=C1CC(c2cccs2)Cc2nc(NCC3CCCO3)ncc21 (stereo unspecified)
    -0.5, 1, -5, -2.5%, -0.4, 0
O=C(NCc1ccccc1)c1cccc(COc2cccc(Cl)c2)c1
    -0.9, 25, -10, -0.8%, 1.4, 20
COc1ccc(N(CC(=O)NCc2ccc(C)cc2)S(=O)(=O)c2ccccc2[N+](=O)[O-])c(OC)c1
    1.4, -11, -6, -0.6%, 1.3, -5
O=C(c1cc(COc2ccc3ncccc3c2)on1)N1CCCC1
    4.8, -17, 15, 1.2%, 2.1, 9
COc1ccc(-c2nc3c4ccccc4ccn3c2CN2CCCCC2)cc1
    -0.2, -1, -10, 4.9%, 2.1, -10
COc1cc2[nH]cc(C(=O)NCCc3ccccc3)c(=O)c2cc1OC
    2.8, ?, -3, 0.4%[38.3 µM], -0.1, -24
O=C(N/C(C(=O)N1CCOCC1)=C(\Sc1ncccn1)c1ccccc1)c1ccccc1
    -3.6, 4, -14, 0.4%, 1.0, 3
COc1ccc(N=CC2CCCCC2=O)c([N+](=O)[O-])c1 (stereo unspecified)
    0.3, ?, 19, 0.8%, 1.7, ?
CNc1nc(-c2ccccc2)nc(-c2ccc(OC)cc2)c1C#N
    -0.5, 2, 1, 5.4%, -0.4, 14
CC1CC(=O)N(c2ccc(NCCc3ccccc3)c([N+](=O)[O-])c2)C1=O (stereo unspecified)
    -4.4, -19, -9, 3.8%, 1.5, -26
O=C(CSc1nc2ccccc2c(=O)[nH]1)Nc1ccc(N2CCOCC2)cc1
    -1.2, -1, -8, ?, -0.5, 4
Cc1ccccc1N(CC(=O)N/N=C/c1ccccc1Cl)C(=O)c1ccccc1
    -2.4, -10, -12, 3.2%, 0.0, 6
COc1cccc(NC(=O)N(Cc2ccco2)C(C)c2cccs2)c1 (stereo unspecified)
    -3.0, -8, -8, -5.2%[38.3 µM], 1.3, -4
COc1ccc(NC(=S)NNC(=O)COc2ccc(Cl)cc2Cl)cc1
    -4.0, -5, -2, 0.7%, 1.2, -4
COc1ccccc1NS(=O)(=O)c1cccc(C(=O)NN=C2CCCCCC2)c1
    5.5, -2, -1, 1.9%, 0.5, 3
O=C1/C(=C/c2ccccn2)SC(=S)N1Nc1ncc(C(F)(F)F)cc1Cl
    -1.4, -15, -8, 1.4%, -0.6, -7
Cc1nc2cc(C(F)(F)F)ccc2n1C
    -3.0, 0, -7, 0.4%, -0.7, 4
CN(C)CCCn1c(SCC(=O)Nc2nccs2)nnc1-c1ccncc1
    -3.6, -18, 0, 6.3%, -0.2, -19
CC1CN(C(=O)COC(=O)c2cc(Cl)ccc2Cl)CC(C)O1 (stereo unspecified)
    2.6, 17, -15, -1.3%, 0.9, 2
Cc1ccc(S(C)(=O)=O)cc1S(=O)(=O)Nc1ccccc1
    -1.1, 6, -14, -0.8%, 0.1, -2
CCOC(=O)c1sc(=S)n(-c2ccccc2)c1NC(C)=O
    -5.1, -2, -8, 4.6%, -0.2, 3
COC(=O)c1cc(Br)c(=O)n(Cc2ccncc2)c1
    -1.0, 0, 12, 1.0%, 0.1, 6
CC1(C)CC(=O)C2=C(C1)NC(Nc1nc3ccccc3o1)=NC21CCCC1
    -2.3, 3, 6, 16%[38.3 µM], 2.1, 2
COc1cccc(COc2ccc3ccc(=O)oc3c2)c1
    2.7, -2, -15, -0.5%, 2.5, -2
Cc1ccc(S(=O)(=O)Cn2cnnn2)cc1
    -3.7, -5, 1, 2.3%, 0.1, -8

Outcome played no part in choosing rows; overall some 1.3% were active at least once.
